Autofluor counter – counter-screen for toxin protease inhibitors: compound fluorescence. compound autofluorescence counterscreen, microsphere flow cytometry; active compounds read high. fluorescence intensity (test concentration not listed). 360,000 compounds, 3.1% hits. AID 624483;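 active = at least 3 SD above the mean of all compounds, about 16000 in these data; inconclusive = too few beads counted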;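 note: 100 nL of 1 mM stock went into each well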
PrP UTR inh – inhibition of PrP 5' UTR reporter expression | cell-based PrP 5' UTR mRNA reporter, plate reader | inhibition, % (test concentration not listed) | 340,000 compounds, 0.35% hits | AID 488862, 2010;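 active = every replicate at 50% or more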;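 note: 0 = median of the neutral control wells; tested in H4 reporter cells; numbers are from one replicate; inactives centre near -14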
Mtb hypoxia inh – PubChem AID 1159583 | M. tuberculosis hypoxia-regulated fluorescent reporter, fluorescence | fluorescence inhibition, % (test concentration not listed) | 300,000 compounds, 0.1% hits;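 active = 35 to 45% if threefold the growth effect, above 45% if 1.5-fold the growth effect; inactive = the rest, general growth blockers included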;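 note: wells of about 50 µL received 100 nL stock; 0% = vehicle wells and 100% = reference inhibitor wells; whole bacteria with a GFP reporter of the hypoxia response; strong numbers were not always called active; many hits fall short of the cut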
ugtP null kill – growth inhibition of ugtP-null S. aureus, primary screen, RN4220 ugtP deletion, OD600; growth inhibition, % (no concentration beside the values); 16 h; some inactives read as strong as hits; 330,000 compounds, 0.54% hits; AID 1259309, 2017;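 active = z-score under -3 and OD600 up to 0.15 on both plates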;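 note: plate controls were untreated wells for no effect and antibiotic for full effect; wells of about 80 µL received 100 nL stock; the first replicate is given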
BJeLR lethal – MLPCN primary cell-based screen for lethality selective to Ras in HRASV12 cells. BJeLR (HRASV12) viability, CellTiter-Glo ATP luminescence, 48 h; reference of the scale not given here. 300,000 compounds, 0.17% hits. inhibition, % (test concentration not listed);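 active = replicate mean above 50%; inconclusive = above 50% but judged a plate artefact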;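 note: 50 nL library stock added to about 25 µL; numbers are from one replicate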
Sa RN4220 lethal – growth inhibition of S. aureus RN4220, primary screen, OD600; 16 h; inhibition, % (no concentration beside the values); 330,000 compounds, 0.33% hits; AID 1259311, 2017;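 active = z-score of -3 or lower and OD600 up to 0.18 on both plates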;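 note: plate controls were untreated cells for no effect and reference antibiotic for full effect; stock transfer was 100 nL into about 80 µL; one replicate is shown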
Mtb hypoxia inh growth – recorded beside Mtb hypoxia inh, whose call it bears; growth inhibition, %; measured here: M. tuberculosis growth (absorbance);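 0% = vehicle and 100% = reference antibiotic; read after six days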
* = called active by the depositor; ? = inconclusive; nt = not tested or not shown.

compound,PrP UTR inh,BJeLR lethal,Autofluor counter,ugtP null kill,Mtb hypoxia inh growth,Sa RN4220 lethal,Mtb hypoxia inh
CC(C)(C)C(=O)Nc1cccc(OC(F)(F)C(F)Cl)c1 (stereo not given),-7.4,nt,4498,6.3,9.4,-0.8,-1.7
CCCCC(CC)CNC(=O)c1ncn[nH]1 (stereo not given),-7.0,5.2,2357,4.1,10.9,0.3,11.2
COCCN(C(=O)COC(=O)Cc1coc2cc3c(cc12)CCC3)c1c(N)n(Cc2ccccc2)c(=O)[nH]c1=O,-51.8,-6.8,6020,32.1,-6.9,27.0,-0.8
CC1CCCCN1C(=O)CSc1nc(C2CC2)nc2ccccc12 (stereo not given),-11.1,0.8,6661,6.2,8.1,3.3,6.4
CCN(CC)c1ccc(NC(=O)CSC(=O)c2ccccc2)cc1,-14.8,nt,?,4.7,-4.0,-1.6,2.6
Nc1nc(Cl)nc2c1ncn2C1CC(O)C(CO)O1 (stereo not given),35.2,-16.9,4379,2.9,17.0,-0.2,15.8
COc1ccc(C2CC(O)(c3ccccc3)Oc3cc(OC)cc(OC)c32)cc1 (stereo not given),-25.3,-13.3,3636,63.1,7.6,2.4,-2.0
C/C(=N\NC(=O)c1cc(C)nc2ccccc12)c1ccco1,-24.1,-4.7,4082,nt,nt,nt,nt
O=C(CCC1CC(=O)Nc2ccccc21)NCc1ccccc1 (stereo not given),-10.1,1.2,11388,1.4,3.7,4.9,2.9
COc1cccc(CNc2nc3nc(C)cc(C)n3n2)c1,-14.8,1.3,4792,0.4,6.8,0.1,2.3
COc1ccccc1C1C(C(=O)c2cc3ccccc3o2)=C(O)C(=O)N1c1cc(C)on1 (stereo not given),0.3,-0.5,5541,-1.4,-1.8,7.8,-5.2
CC1CCCN(S(=O)(=O)c2cc(C(=O)NCc3ccco3)ccc2Cl)C1 (stereo not given),-10.0,nt,?,-2.2,-1.2,-0.9,6.3
CN(C)c1ccc(/C=N/c2cc(-c3ccccc3)nn2-c2ccccc2)cc1,-47.2,1.8,8115,nt,nt,nt,nt
COC(=O)[C@H](CC(C)C)NC(=O)Cn1cnc(C(=O)Nc2ccc(C)c(C)c2)n1,-19.7,nt,4147,2.6,11.7,2.7,-11.0
Cc1ccc(NCc2nnc(SCC(=O)N3CCCCC3)n2CC2CCCO2)c(C)c1 (stereo not given),-9.5,3.5,?,2.9,-1.0,3.7,-0.4
Cc1ccc(Cl)c(OC(=O)c2ccc(N3CCOCC3)c([N+](=O)[O-])c2)c1,4.0,5.9,2008,-9.4,-2.1,4.0,8.8
O=C(c1cc(COc2cccc(C(F)(F)F)c2)on1)N1CCSCC1,-17.0,2.4,4115,0.8,-13.5,1.2,-7.9
Cc1cc(C)c(-n2c(O)c(/C=N/N3CCCCC3c3cccnc3)c(=O)[nH]c2=O)c(C)c1 (stereo not given),-5.3,-0.9,2483,-2.9,3.2,6.1,6.9
COc1ccc2cc(C(=O)NC3CCCCC3)c(=O)oc2c1,-27.3,2.7,2479,-2.2,nt,-2.8,nt
COC(=O)CCCC1=CC2=CC(=O)C(C)(OC(=O)c3cccs3)C(=O)C2=CN1CCCOC(C)C (stereo not given),-14.4,8.1,3451,-4.1,3.1,5.4,7.0
Cc1ccccc1OCC(=O)Nc1cccc(NC(=O)c2ccco2)c1,-15.9,-2.3,3522,-0.9,4.0,21.9,-1.9
O=C(NCc1ccc2c(c1)OCO2)c1c[nH]c2ccc(S(=O)(=O)N3CCOCC3)cc2c1=O,2.4,-0.9,21299*,6.2,9.0,2.9,4.2
O=C(Nc1ccccc1)c1nnsc1S(=O)(=O)c1ccc(Cl)cc1,-9.9,-4.5,3656,100.3*,nt,37.9,nt
CC1=C/C(=C/N(C)C)C(=O)O1,-16.7,-7.1,4376,-6.5,7.2,5.8,9.4
NNC(=O)c1nnn(-c2nonc2N)c1-c1cccs1,11.6,6.3,3569,5.4,1.9,3.7,6.9

compound,PrP UTR inh,BJeLR lethal,Autofluor counter,ugtP null kill,Mtb hypoxia inh growth,Sa RN4220 lethal,Mtb hypoxia inh
Cc1nn(-c2ccccc2)c2[nH]c(=O)c(CNCc3ccc4c(c3)OCO4)cc12,-9.1,-3.8,4504,2.6,nt,1.2,nt
CCCc1[nH]n(-c2nc3ccccc3s2)c(=O)c1C=NCCN1CCOCC1,-24.1,-5.8,15365,-1.5,5.5,7.7,8.0
Cc1ccc(N(CC(=O)NN=Cc2ccc(OC3CSC3)cc2)S(=O)(=O)c2ccccc2)c(C)c1,nt,nt,nt,2.4,-0.8,-7.5,5.3
COc1ccc(Cl)cc1NC(=O)CCn1cnc2ccccc2c1=O,70.5*,2.6,2783,-7.1,nt,-1.9,nt
COc1cc2cc(C(=O)N(C)C3CCS(=O)(=O)C3)[nH]c2cc1OC (stereo not given),-0.5,3.3,5979,0.8,6.2,1.5,-3.3
CCc1ccc(Nc2nnc(SC3CCOC3=O)s2)cc1 (stereo not given),-15.9,-19.4,2722,0.0,6.7,6.6,4.1
Cc1cc(NC(=O)c2cc(-c3cccs3)on2)nn1Cc1ccc(Cl)cc1,-13.9,5.5,10202,-17.9,9.5,0.7,6.5
COc1ccc(/C=C2\Sc3ccc(C(=O)N4CCOCC4)cc3N(C)C2=O)cc1,-6.4,-8.1,6018,-0.5,1.5,1.6,0.3
CCCCCC(=O)Nc1ccc(N2CCOCC2)c(S(=O)(=O)Nc2ccc(OC)cc2)c1,-16.5,-6.5,5254,8.1,8.8,2.3,7.3
COc1cccc(OC)c1C(O)=C(C#N)c1nc2ccccc2[nH]1,nt,nt,nt,5.9,-1.2,0.4,11.9
Cc1ccc(NS(=O)(=O)c2ccc(NC(=O)c3ccccc3C(=O)O)cc2)c(C)c1,-19.5,-1.1,5874,6.8,9.7,2.4,6.2
Cc1ccccc1NC(=O)CSc1nnc(C)c(=O)[nH]1,-4.6,-8.6,2543,5.1,2.9,3.3,2.7
COc1ccc(-c2cc(=O)oc3c(C)c(OC(=O)c4cccs4)ccc23)cc1,-5.3,nt,2544,1.6,1.3,5.1,2.9
Cc1cc(NC(=O)CSc2nc3ccccc3c(=O)n2C2CCCC2)no1,34.2,21.5,nt,6.7,17.4,1.0,8.1
O=C(NN=C/C=C/c1ccccc1)C(O)c1ccccc1 (stereo not given),nt,nt,nt,-6.6,13.1,2.3,-2.8
Cn1c(Cn2c(=O)sc3ccccc32)nnc1SCC(=O)NCCc1ccccc1,-14.2,2.6,5812,-2.9,nt,-3.8,nt
CCCCN(C)Cc1c(C)[nH]c2ccc(Cl)cc2c1=O,-17.7,3.8,7793,6.3,4.7,3.5,13.7
CC(C)CC(NC(=O)c1nc[nH]c1C(=O)NCc1ccccc1)C(=O)OC(C)(C)C (stereo not given),nt,nt,nt,-5.7,-0.2,3.0,0.9
Cc1ccc(-c2c[n+](CC(=O)Nc3nc(-c4ccccc4)cs3)c3n2CCC3)cc1,-25.5,-2.0,6326,-20.1,12.9,-5.2,17.5
C/C(=N\OCc1nc2ccccc2c(=O)n1/N=C/c1cc(C)cc([N+](=O)[O-])c1O)c1ccccc1,-8.3,2.1,4621,nt,nt,nt,nt
O=C(COC(=O)/C=C/c1ccccc1[N+](=O)[O-])NNC(=O)c1ccc(F)cc1,-15.9,nt,6234,6.1,-3.9,2.9,0.6
COc1ccc(NC(=O)C2=CC(c3ccc(OC)cc3)=NS(=O)(=O)N2C)cc1,-12.8,6.8,5083,2.3,-1.5,-2.6,2.4
O=C(O)CSC(C(=O)Nc1ccc(Br)cc1)c1ccccc1 (stereo not given),-14.3,-1.4,2563,4.1,2.8,4.0,11.8
COC(=O)c1cn(C(=O)c2ccc(C)cc2C)c2ccccc12,-0.8,23.7,3389,2.2,-5.4,-6.2,2.6
N#CCC(=O)Nc1ccc(C(=O)OCC(=O)Nc2ccccc2Sc2ccccc2)cc1,-12.0,0.2,4726,-5.7,0.3,-6.2,-4.9

In a second layout: entries from further up
Under each structure: PrP UTR inh | BJeLR lethal | Autofluor counter | ugtP null kill | Mtb hypoxia inh growth | Sa RN4220 lethal | Mtb hypoxia inh
O=C(O)CSC(C(=O)Nc1ccc(Br)cc1)c1ccccc1 (stereo not given)
→ -14.3 | -1.4 | 2563 | 4.1 | 2.8 | 4.0 | 11.8
COC(=O)c1cn(C(=O)c2ccc(C)cc2C)c2ccccc12
→ -0.8 | 23.7 | 3389 | 2.2 | -5.4 | -6.2 | 2.6
N#CCC(=O)Nc1ccc(C(=O)OCC(=O)Nc2ccccc2Sc2ccccc2)cc1
→ -12.0 | 0.2 | 4726 | -5.7 | 0.3 | -6.2 | -4.9

Remaining list, next part
compound,PrP UTR inh,BJeLR lethal,Autofluor counter,ugtP null kill,Mtb hypoxia inh growth,Sa RN4220 lethal,Mtb hypoxia inh
C(#Cc1ccccc1)Cn1nnc2ccccc21,-54.4,6.6,10635,12.5,16.7,4.4,-1.2
COc1ccc(Cc2nc3c4c(ncn3n2)Oc2c(ccc3ccccc23)C4c2ccc(OC)c(OC)c2)cc1 (stereo not given),-72.2,-22.3,2536,-0.7,3.0,4.0,3.8
Cc1ccc(/C=C/C(=O)O)cc1S(=O)(=O)N(C)CCO,3.0,-4.3,2378,7.1,2.2,0.1,4.2
CC(NC(=O)Cc1ccc(S(=O)(=O)N2CCOCC2)s1)c1ccc(Cl)c(Cl)c1 (stereo not given),-10.7,9.7,5961,-5.3,2.4,1.7,3.3
CC(NC(=O)c1ccc(C#N)cc1)C1CC2CCC1C2 (stereo not given),11.0,6.0,5220,1.6,nt,0.8,nt
CNC(=S)N1CCN(c2cccc(OC)c2)CC1,-8.7,-0.6,9858,3.8,10.0,2.2,8.5
CCCn1c(N)c(Sc2ccccc2[N+](=O)[O-])c(=O)n(CCC)c1=O,-8.0,-1.5,3535,5.2,8.1,0.8,6.6
CCN(CC)S(=O)(=O)c1ccc(N2CCCC2)c(NS(=O)(=O)c2cccs2)c1,-14.5,4.2,3241,-1.5,8.1,13.0,2.7
CCc1nnc(NS(=O)(=O)c2ccc(N=Cc3c(C)[nH]n(-c4ccc(C)c(C)c4)c3=O)cc2)s1,-27.2,21.8,2252,nt,nt,nt,nt
COc1ccc(C)cc1NC(=O)CSc1ccc(-c2cccnc2)nn1,-23.1,-3.7,4573,nt,nt,nt,nt
COc1cc(CCCN2C(=S)NC[C@@H]2c2ccccc2)cc(OC)c1OC,-4.3,-9.8,3866,-5.6,-2.8,-7.0,7.6
NC(=O)C1CCCN(C(=S)Nc2cccc3ccccc23)C1 (stereo not given),2.7,-16.8,10818,0.2,0.6,1.8,3.3
CC(C)(C)c1cc(C(=O)NN=Cc2cc3c(cc2Br)OCO3)n[nH]1,nt,nt,nt,-8.5,-7.4,2.9,-1.5
O=C(c1ccc(Cl)cc1)N1CCN(C(=O)c2ccco2)CC1,-13.4,0.0,4382,9.7,nt,-4.2,nt
COc1ccc(-c2c[n+]3c(n2-c2c(C)n(C)n(-c4ccccc4)c2=O)CCCCC3)cc1,-8.1,7.2,4951,7.7,8.4,2.0,6.2
Cc1onc(-c2ccccc2Cl)c1C(=O)Nc1ccccc1C(N)=O,-2.9,4.6,2565,2.0,1.4,-6.6,5.5
Cc1ccc(-c2nn(-c3ccccc3)cc2C(=O)N2CCOCC2)cc1C,-18.6,-1.0,2478,10.9,-0.5,5.8,7.7
COc1ccc(-c2cc(C(=O)Nc3c(C)nn(Cc4ccccc4Cl)c3C)no2)cc1OC,-19.2,nt,22371*,1.5,5.9,4.6,-2.5
Cc1csc(C(=O)O)c1-n1cccc1,-21.1,-2.6,4010,6.8,1.3,6.7,-4.3
CCC(C)(C)c1ccc(Oc2ccc(N)cc2)cc1,87.3*,1.8,3153,25.9,12.9,6.0,21.2
CSc1cccc(NC(=S)Nc2ccc(F)cc2)c1,-21.4,5.3,nt,-2.3,-0.7,-1.5,8.6
COc1cccc(-n2cnc3sc(C)cc3c2=O)c1,-16.1,-2.9,4547,4.8,-2.4,2.5,0.5
COc1ccc(O)c(-c2cc(C(F)(F)C(F)F)nc(-c3ccccc3)n2)c1,-13.6,-4.6,3318,0.7,1.9,10.9,-9.7
CCn1cc(/C=c2/sc3n(c2=O)C2c4ccccc4OC(C)(N=3)C2C(=O)OC)c(C)n1 (stereo not given),-8.1,-5.7,3275,nt,nt,nt,nt
